Compound activity deposited in PubChem BioAssay by several laboratories.
AF4-AF9 inh – blocks AF4 peptide binding to human AF9; hit rate 0.47% among 350,000; inhibition, % at 10 µM; P42568; AID 651704; AlphaScreen, biotin-AF4 peptide binding to FLAG-AF9;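 active means every replicate reaching a set inhibition limit, whatever the replicate mean, cut at about 25% in these data; inconclusive means mean inhibition reaches that limit but some replicates miss it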;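 further: 0% = plate neutral control median and 100% = total signal loss; the record names both 10 and 1 µM as test concentration; the first replicate is given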
Target sequence (P42568 whole entry, looked up): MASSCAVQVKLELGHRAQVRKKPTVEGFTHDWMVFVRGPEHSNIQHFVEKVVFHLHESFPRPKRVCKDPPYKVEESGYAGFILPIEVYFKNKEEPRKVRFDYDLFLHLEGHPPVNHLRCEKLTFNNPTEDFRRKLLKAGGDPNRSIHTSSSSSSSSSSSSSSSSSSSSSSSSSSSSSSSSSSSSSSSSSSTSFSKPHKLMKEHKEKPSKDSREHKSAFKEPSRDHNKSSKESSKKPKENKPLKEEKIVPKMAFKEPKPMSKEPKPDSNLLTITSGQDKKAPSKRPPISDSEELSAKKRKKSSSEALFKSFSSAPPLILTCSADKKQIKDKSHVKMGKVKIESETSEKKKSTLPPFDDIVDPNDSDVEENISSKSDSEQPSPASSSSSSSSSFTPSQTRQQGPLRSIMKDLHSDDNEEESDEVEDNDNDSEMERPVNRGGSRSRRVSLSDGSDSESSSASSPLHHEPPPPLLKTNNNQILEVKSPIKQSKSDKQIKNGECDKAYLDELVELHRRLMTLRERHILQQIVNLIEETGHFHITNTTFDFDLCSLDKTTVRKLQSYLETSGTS
A1 inh – inhibitors of the anti-apoptotic protein A1, read as caspase activation; MEF A1-2A-BIM cells, Caspase-Glo 3/7 luminescence, 3 h; percent of clofoctol response, vehicle zero; caspase activation, % (concentration not given with the values); hit rate 0.066% among 330,000;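 active means over half of replicate activation scores above 10%, or exactly half above 10 with the replicate mean above 10; inconclusive means replicate mean below 10 yet half the replicates above 10; inactive means over half of replicates below 10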;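 further: wells of about 30 µL received 50 nL stock; many hits fall short of the cut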
LANA-H2A inh – blocks KSHV LANA binding to histone H2A/H2B | cell-free LANA-H2A/H2B peptide, fluorescence polarization | inhibition, % (concentration not given with the values) | hit rate 0.6% among 320,000 | AID 2629; in the data active means inhibition mostly above about 10%, no sharp cut-off; inactive means mostly below about 6.7%;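 further: stock transfer was 7.5 nL into about 10 µL; 0% = median of vehicle wells and 100% = median of positive control wells; one replicate is shown; the record names a cut of 25% in any replicate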
Beta apoptosis – beta cell apoptosis inhibition | hit rate 0.8% among 300,000 | INS-1E cytokine-induced death, ATP luminescence, 48 h; percent of positive-control rescue, neutral wells zero | protection from apoptosis, % (test concentration not listed);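 active means all replicates at 75% or more, or half of them and the mean; inconclusive means half reach 75% but not the mean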;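 further: 0% = cytokine-treated negative control wells and 100% = positive control rescue; higher means more ATP so stronger rescue from cytokine killing; wells of about 40 µL received 100 nL stock; the first replicate is given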
RanGTP-Impb inh – disruptors of Ran-importin-beta complex formation – biochemical, FRET, CFP-Ran, YFP-importin-beta, homogeneous, primary screen | inhibition, % (concentration not given with the values) | AID 2216 | cell-free CFP-Ran/YFP-importin-beta FRET ratio | hit rate 1.1% among 300,000;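 active means most replicates above 15%; inconclusive means exactly half above 15%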;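 further: 0% = DMSO wells and 100% = Ran loaded with GDP instead of GTP; wells of about 40 µL received 100 nL stock; the first replicate is given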
Calb FLC – affects C. albicans growth with fluconazole; C. albicans CaCi-2 (fluconazole-resistant clinical isolate) + fluconazole, Alamar Blue growth, 48 h; growth inhibition, % (no concentration beside the values); hit rate 0.57% among 300,000; AID 1979;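 active means most replicates above 75%; inconclusive means exactly half above 75%; inactive means most below 75%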;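 further: all wells also contain fluconazole at 8 µg/ml as a sub-toxic cotreatment; 0% = median of DMSO wells and 100% = median of geldanamycin control wells; wells of about 8 µL received 7.5 nL stock; the first replicate is given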
T cruzi repl – blocks replication of Trypanosoma cruzi; inhibition, % (test concentration not listed); T. cruzi beta-gal in NIH3T3, luminescence, 90 h; hit rate 1.4% among 300,000;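 active means mean inhibition across valid replicates above about 55%, limit read from the data; inconclusive means mean below that limit but half or more replicates reach it; inactive means mean below it, under half of replicates reach it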;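 further: signal also drops with host cell toxicity which is not excluded here; 0% = plate median of DMSO wells and 100% = zero luminescence signal; higher percent means less beta-gal luminescence so fewer parasites; stock transfer was 50 nL into about 50 µL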
Vif TR-FRET – inhibitors of Vif binding to APOBEC3G peptide, primary screen, biochemical, TR-FRET, GST-Vif 1-94, biotin-A3G peptide, dose response retest (AID 1117319) | TR-FRET GST-Vif / biotin-A3G peptide binding; higher % means a stronger effect; test concentration not given here; strong numbers were not always called active | inhibition, %, or IC50 in µM where a hit was titrated | hit rate 0.57% among 260,000;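 active means above the screen mean plus three standard deviations and confirmed in dose response; inconclusive means results disagree or hit not tested in dose response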;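 further: Vif residues 1-94 fused to GST binding biotinylated APOBEC3G peptide 110-148; 0% = full assay without inhibitor and 100% = GST in place of GST-Vif; retest series ran down from 100 µM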
* marks the source's active call; other numbers are inactive results; & = joins results of further samples.

Results for O=C(COC(=O)/C=C/c1cccs1)NC1CC1 ?
AF4-AF9 inh: 0.2; A1 inh: 0.8; LANA-H2A inh: -1.9; Beta apoptosis: -4; RanGTP-Impb inh: -1.7; Calb FLC: 50; T cruzi repl: -16; Vif TR-FRET: -6%

What do the screens show for `COc1ccc(OC(=O)c2ccc(OC)c(S(=O)(=O)N3CCOCC3)c2)cc1`?
AF4-AF9 inh: -18; A1 inh: -0.8; LANA-H2A inh: 8.0; Beta apoptosis: 4; RanGTP-Impb inh: 0.7; Calb FLC: -12; T cruzi repl: -11

How did COc1ccc(C2=NN(c3ccc(C=O)cc3)C(c3ccccc3)C2)cc1 (stereo not given) do in these assays?
A1 inh: 0.7; LANA-H2A inh: 7.5; Beta apoptosis: 10; RanGTP-Impb inh: 31*; Calb FLC: -4; T cruzi repl: 29

Results for CCCCCSc1nc2c(cnn2-c2ccccc2)c(=O)[nH]1 ?
A1 inh: 0.8; LANA-H2A inh: 0.1; Beta apoptosis: -3; Vif TR-FRET: 15%

How did C[C@H](NC(=O)C1(c2ccccc2)CCN(C(=O)OC(C)(C)C)CC1)C(=O)N[C@@H](C(=O)O)c1ccccc1 do in these assays?
AF4-AF9 inh: 0.2; A1 inh: -1.3; LANA-H2A inh: -3.7; RanGTP-Impb inh: -0.7; Calb FLC: -4; T cruzi repl: 0

Results for O=c1cc(CSc2nnnn2-c2ccccc2)[nH]c2[nH]n(-c3ccccc3)c(=O)c12 ?
A1 inh: 0.6; LANA-H2A inh: 2.8; Beta apoptosis: 2; RanGTP-Impb inh: -4.7; Calb FLC: -2; T cruzi repl: -4; Vif TR-FRET: inconclusive

What do the screens show for `O=C(Nc1nc2cc3c(cc2s1)OCCO3)c1cccs1`?
AF4-AF9 inh: -16; A1 inh: -7.6; LANA-H2A inh: -1.0; Beta apoptosis: 18; RanGTP-Impb inh: -4.3; Calb FLC: -6; T cruzi repl: 0; Vif TR-FRET: -4%

What do the screens show for `CCC1(c2ccccc2)NC(=O)N(CC(=O)Nc2cc(C(F)(F)F)ccc2N2CCCC2)C1=O` (stereo not given)?
AF4-AF9 inh: -38; A1 inh: -0.2; LANA-H2A inh: -1.6; RanGTP-Impb inh: -2.2; Calb FLC: 4; T cruzi repl: 4; Vif TR-FRET: -3%

How did COc1ccc(OCc2cc(C(=O)N(C)CCC3CCOCC3)no2)c(Cl)c1 do in these assays?
AF4-AF9 inh: -1.1; A1 inh: -2.6; LANA-H2A inh: 3.3; RanGTP-Impb inh: 1.3; Calb FLC: 2; T cruzi repl: 13

What do the screens show for `CN(CC1CCCO1)S(=O)(=O)c1ccc(C(=O)Nc2ccc(S(N)(=O)=O)cc2)cc1` (stereo not given)?
AF4-AF9 inh: -1.9; A1 inh: -0.9; LANA-H2A inh: 2.5; Beta apoptosis: 6; RanGTP-Impb inh: 0.7; Calb FLC: -2; T cruzi repl: 9; Vif TR-FRET: -3%

What do the screens show for `O=C1CCCc2cc3c(cc21)CC1(C3)Cc2cc3c(cc2C1)C(=O)CCC3`?
AF4-AF9 inh: 2.6; A1 inh: -0.1; LANA-H2A inh: 1.8; RanGTP-Impb inh: 4.3; Calb FLC: -5; T cruzi repl: 48

Results for COC(=O)c1sc(=S)n(-c2ccccc2)c1N ?
A1 inh: -0.1; LANA-H2A inh: -3.0; Beta apoptosis: 0; RanGTP-Impb inh: -5.3; Calb FLC: 2; T cruzi repl: -16; Vif TR-FRET: -2%

How did COc1cccc(CC(=O)NCC2COc3ccccc3O2)c1OC (stereo not given) do in these assays?
AF4-AF9 inh: -3.6; A1 inh: -0.4; LANA-H2A inh: -153; Beta apoptosis: -5; RanGTP-Impb inh: -5.8; Calb FLC: 21; T cruzi repl: 10; Vif TR-FRET: -1%

Results for CCCCN1C(=N)N([C@@H](C)CN2CCC[C@H]2CN2C(N)=NC[C@H]2CC(C)C)C[C@H]1Cc1ccccc1 ?
AF4-AF9 inh: -3.4; A1 inh: -0.2; LANA-H2A inh: -2.1; Beta apoptosis: -1

What do the screens show for `COc1ccc(C(CNC(=O)c2cc(S(=O)(=O)NCc3ccco3)ccc2C)N(C)C)cc1` (stereo not given)?
AF4-AF9 inh: 10; A1 inh: inconclusive; LANA-H2A inh: -0.7; Beta apoptosis: -3

Results for O=C(Nc1nc2c(s1)CCCC2)c1ccc(Br)o1 ?
A1 inh: 0.3; LANA-H2A inh: 1.4; Beta apoptosis: 3; RanGTP-Impb inh: -0.5; Calb FLC: -3; T cruzi repl: -5; Vif TR-FRET: 10%

Results for CC(=O)NCCc1nc2ccccc2n1CCOc1ccccc1C ?
AF4-AF9 inh: inconclusive; A1 inh: -0.3; LANA-H2A inh: 0.7; Beta apoptosis: 1; RanGTP-Impb inh: -0.5; Calb FLC: 1; T cruzi repl: -6; Vif TR-FRET: 5%

How did CSc1nc(NC(C)=O)nc(C)c1Br do in these assays?
A1 inh: -0.6; LANA-H2A inh: -1.3; Beta apoptosis: 4; RanGTP-Impb inh: 4.2; Calb FLC: 3; T cruzi repl: 4; Vif TR-FRET: -4%

What do the screens show for `Cn1c(SCc2cccc(Br)c2)nnc1-c1ccccn1`?
AF4-AF9 inh: 1.8; A1 inh: -0.5; LANA-H2A inh: 4.2; Beta apoptosis: 8; RanGTP-Impb inh: 3.2; Calb FLC: -1; T cruzi repl: -2; Vif TR-FRET: -1%

Results for O=c1[nH]c(CSc2ccccc2)nc2c1oc1ccccc12 ?
AF4-AF9 inh: -31; A1 inh: -1.0; LANA-H2A inh: 2.3; Beta apoptosis: 2; RanGTP-Impb inh: -1.6; Calb FLC: -12; T cruzi repl: 14; Vif TR-FRET: 1%

How did O=C(COC(=O)c1ccccc1)Nc1cccc(S(=O)(=O)NC2=NCCCCC2)c1 do in these assays?
AF4-AF9 inh: -1.3; A1 inh: -0.2; LANA-H2A inh: 3.3; Beta apoptosis: -4; RanGTP-Impb inh: -5.0; Calb FLC: 2; T cruzi repl: -7; Vif TR-FRET: 10%

Results for COc1cccc(NC(=O)Cn2c(=O)n(CCCC(=O)NCc3ccco3)c(=O)c3ccccc32)c1 ?
RanGTP-Impb inh: -1.5; Calb FLC: -2; T cruzi repl: 3; Vif TR-FRET: 21%

How did O=[N+]([O-])c1ccc(/C=N/Nc2nc3ccccc3o2)cc1 do in these assays?
AF4-AF9 inh: -7.6; A1 inh: -4.6; LANA-H2A inh: 2.9; Beta apoptosis: -2; RanGTP-Impb inh: -3.4; Calb FLC: 3; T cruzi repl: -3; Vif TR-FRET: -3%

How did CS(=O)(=O)N(CC(=O)N1CCc2ccccc2C1)Cc1ccccc1 do in these assays?
AF4-AF9 inh: -17; A1 inh: 0.9; LANA-H2A inh: -1.9; Beta apoptosis: -12; RanGTP-Impb inh: inconclusive; Calb FLC: 0; T cruzi repl: 4; Vif TR-FRET: 2%

What do the screens show for `CCNC(=O)NC(=O)CSc1ccc(NC(C)=O)cc1`?
A1 inh: 0.3; LANA-H2A inh: -0.4; Beta apoptosis: -4; RanGTP-Impb inh: -3.5; Calb FLC: 0; T cruzi repl: 0; Vif TR-FRET: 2%

What do the screens show for `CCOc1ccc(Oc2ccc(Cl)cc2N)cc1`?
AF4-AF9 inh: 3.1; A1 inh: 0.3; LANA-H2A inh: -0.9; Beta apoptosis: 2; RanGTP-Impb inh: -2.6; Calb FLC: inconclusive; T cruzi repl: 2; Vif TR-FRET: 5%

What do the screens show for `COC(=O)C1=C(N)Oc2cc(C)n(Cc3ccccc3)c(=O)c2C1c1ccccc1` (stereo not given)?
A1 inh: 1.1; LANA-H2A inh: 4.7; Beta apoptosis: 1; RanGTP-Impb inh: inconclusive; Calb FLC: 15; T cruzi repl: 6; Vif TR-FRET: -3%

Results for Cc1ccccc1-c1nnc(CN2CCN(C(=O)c3ccco3)CC2)o1 ?
AF4-AF9 inh: -0.2; A1 inh: -0.1; LANA-H2A inh: -0.1; Beta apoptosis: -3; RanGTP-Impb inh: 4.6; Calb FLC: -1; T cruzi repl: 2

Results for C=CCNC(=S)NCC ?
AF4-AF9 inh: -3.0; A1 inh: 2.4; LANA-H2A inh: 0.1; Beta apoptosis: -4; RanGTP-Impb inh: 1.6; T cruzi repl: -13; Vif TR-FRET: 11%

What do the screens show for `CCN(CC)CCN(Cc1cc2cc3c(cc2[nH]c1=O)OCCO3)C(=S)NCCCN(C)C`?
AF4-AF9 inh: 2.4; A1 inh: -0.3; LANA-H2A inh: 6.1; Beta apoptosis: 0; RanGTP-Impb inh: -5.3; Calb FLC: -6; T cruzi repl: -8

How did C=CCn1c(=O)c2ccc(C(=O)NCc3ccccc3)cc2n(Cc2cccc(Cl)c2)c1=O do in these assays?
AF4-AF9 inh: -1.8; A1 inh: -0.9; LANA-H2A inh: 6.0; RanGTP-Impb inh: -1.9; Calb FLC: -3; T cruzi repl: 16; Vif TR-FRET: 13%

How did CCOc1cc(C2C(C(=O)c3ccco3)=C(O)C(=O)N2Cc2ccccc2)ccc1O (stereo not given) do in these assays?
AF4-AF9 inh: 0.5; A1 inh: 0.4; LANA-H2A inh: 2.2; Beta apoptosis: -8; RanGTP-Impb inh: 4.1; Calb FLC: 20; T cruzi repl: -5

What do the screens show for `C=CCn1c(O)c(N=O)c2ccccc21`?
AF4-AF9 inh: -13; A1 inh: 0.3; LANA-H2A inh: 1.4; Beta apoptosis: -4; RanGTP-Impb inh: -1.3; Calb FLC: -2; T cruzi repl: -12; Vif TR-FRET: 8%

What do the screens show for `Cc1ccc(OCCC(=O)N2CCN(c3ccc(O)cc3)CC2)cc1`?
AF4-AF9 inh: 5.0; A1 inh: -0.5; LANA-H2A inh: 5.9; Beta apoptosis: 0; RanGTP-Impb inh: 1.6; Calb FLC: inconclusive; T cruzi repl: inconclusive; Vif TR-FRET: inconclusive

What do the screens show for `Cc1ccc(S(=O)(=O)NC2CC(C)(C)N(O)C(C)(C)C2)cc1`?
AF4-AF9 inh: 5.4; A1 inh: 1.2; LANA-H2A inh: 1.5; Beta apoptosis: 0; Vif TR-FRET: -5%

What do the screens show for `O=C(c1ccc(-n2ccnc2)cc1)N1CCCC(CO)(Cc2cccc(Cl)c2)C1` (stereo not given)?
AF4-AF9 inh: 3.2; A1 inh: 0.5; LANA-H2A inh: -5.7; Beta apoptosis: -3; RanGTP-Impb inh: 0.9; Calb FLC: -7; T cruzi repl: 30

How did O=C(Cn1cncn1)NCc1cc(F)ccc1F do in these assays?
AF4-AF9 inh: -0.3; A1 inh: 0.6; LANA-H2A inh: -0.2; Beta apoptosis: -2; RanGTP-Impb inh: -0.7; Calb FLC: -6; T cruzi repl: 2; Vif TR-FRET: 2%

Results for O=C1CC(c2cccs2)Sc2nc3ccccc3n21 (stereo not given) ?
A1 inh: 1.7; LANA-H2A inh: -0.9; Beta apoptosis: 3; RanGTP-Impb inh: -0.6; Calb FLC: 3; T cruzi repl: -5; Vif TR-FRET: -2%

What do the screens show for `COc1ccc(N2CCN(c3nc4ccccc4nc3NS(=O)(=O)c3ccccc3)CC2)cc1`?
A1 inh: 0.3; LANA-H2A inh: -0.7; Beta apoptosis: 6; RanGTP-Impb inh: inconclusive; Calb FLC: 5; T cruzi repl: -2; Vif TR-FRET: 67µM*

Results for CC(=O)N1CCC2(CC1)C(C#N)=C(N)Oc1n[nH]c(CSc3ccc(C)cc3)c12 ?
A1 inh: -1.4; LANA-H2A inh: 3.3; Beta apoptosis: -1; RanGTP-Impb inh: 2.1; Calb FLC: -4; T cruzi repl: -10; Vif TR-FRET: 3%&0%
